# T cruzi inh – blocks replication of Trypanosoma cruzi. T. cruzi beta-gal in NIH3T3, luminescence, 90 h. inhibition, % (no concentration beside the values). AID 1885. 1.4% of 300,000 active;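 active = mean inhibition across valid replicates above about 55%, limit read from the data; inconclusive = mean below that limit but half or more replicates reach it; inactive = mean below it, under half of replicates reach it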;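 also: signal also drops with host cell toxicity which is not excluded here; 0% = plate median of DMSO wells and 100% = zero luminescence signal; higher percent means less beta-gal luminescence so fewer parasites; stock transfer was 50 nL into about 50 µL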
# rRNA inh HTS – inhibits bacterial ribosomal RNA function over humanized ribosomes. E. coli WT GFP vs humanized-ribosome RFP mutants, fluorescence, 24 h; active compounds read low; DMSO median 0, no signal -100. GFP signal change (wild-type ribosome), % (concentration not given with the values). 1.6% of 350,000 active. AID 720706;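 active = significant combined selectivity score with lowered wild-type GFP, culture density cut under 30%, mutant RFP and density less affected; inactive = any of these conditions unmet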; also: one replicate is shown; some compounds called inactive have numbers as strong as hits
# ALR H2O2 inh – blocks human ALR sulfhydryl oxidase activity | purified ALR, DTT oxidation, H2O2 HRP-luminol luminescence | inhibition, % (test concentration not listed) | 3.8% of 290,000 active;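 active = mean and each replicate at 75% or more; inconclusive = only one of the two met; inactive = neither met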;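 also: stock transfer was 7.5 nL into about 7.5 µL; 0% = neutral wells and 100% = wells with inactivated enzyme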
# Target sequence (P55789 whole entry, looked up): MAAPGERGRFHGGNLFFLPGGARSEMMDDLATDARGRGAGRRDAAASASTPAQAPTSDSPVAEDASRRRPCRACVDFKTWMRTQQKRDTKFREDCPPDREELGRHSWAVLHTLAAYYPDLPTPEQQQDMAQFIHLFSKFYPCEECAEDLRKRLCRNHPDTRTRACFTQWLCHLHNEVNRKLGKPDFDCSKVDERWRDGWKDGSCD
# Beta2AR agonist – human beta-2 adrenergic receptor agonism by FAP; Am2.2-beta2AR cells, FAP receptor internalization, flow cytometry; reference of the scale not given here; response, % (test concentration not listed); 0.43% of 340,000 active;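 active = response above a set limit, near 3 SD of response in nonfluorescent compounds, cut at about 42% in these data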;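 also: stock transfer was 100 nL into about 11 µL; a reference agonist was the positive control; negative values mostly stem from fluorescent compounds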
# Target sequence (P07550 whole entry, looked up): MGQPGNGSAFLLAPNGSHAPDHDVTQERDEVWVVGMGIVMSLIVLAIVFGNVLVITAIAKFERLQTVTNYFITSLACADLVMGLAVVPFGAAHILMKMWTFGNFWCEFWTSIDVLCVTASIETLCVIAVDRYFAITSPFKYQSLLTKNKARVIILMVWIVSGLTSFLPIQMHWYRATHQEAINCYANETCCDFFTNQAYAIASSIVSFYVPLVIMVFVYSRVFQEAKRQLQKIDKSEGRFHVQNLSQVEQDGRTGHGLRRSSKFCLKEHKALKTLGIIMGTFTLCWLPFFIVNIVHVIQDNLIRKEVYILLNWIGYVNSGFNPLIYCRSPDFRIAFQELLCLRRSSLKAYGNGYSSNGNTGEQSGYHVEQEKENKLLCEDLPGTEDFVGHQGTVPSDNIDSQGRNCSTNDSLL
# Bfl-1 A1 inh – inhibitors of the anti-apoptotic protein A1, read as caspase activation | caspase activation, % (concentration not given with the values) | 0.066% of 330,000 active | MEF A1-2A-BIM cells, Caspase-Glo 3/7 luminescence, 3 h; percent of clofoctol response, vehicle zero;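 active = over half of replicate activation scores above 10%, or exactly half above 10 with the replicate mean above 10; inconclusive = replicate mean below 10 yet half the replicates above 10; inactive = over half of replicates below 10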;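 also: wells of about 30 µL received 50 nL stock; many hits fall short of the cut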
# LANA-H2A inh – blocks KSHV LANA binding to histone H2A/H2B | Q9QR71 | cell-free LANA-H2A/H2B peptide, fluorescence polarization | inhibition, % (concentration not given with the values) | 0.6% of 320,000 active; in the data active = inhibition mostly above about 10%, no sharp cut-off; inactive = mostly below about 6.7%;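 also: stock transfer was 7.5 nL into about 10 µL; 0% = median of vehicle wells and 100% = median of positive control wells; one replicate is shown; the record names a cut of 25% in any replicate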
# Calb FLC – C. albicans growth modulation with fluconazole | C. albicans CaCi-2 (fluconazole-resistant clinical isolate) + fluconazole, Alamar Blue growth, 48 h | growth inhibition, % (no concentration beside the values) | 0.57% of 300,000 active | AID 1979;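 active = most replicates above 75%; inconclusive = exactly half above 75%; inactive = most below 75%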;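 also: all wells also contain fluconazole at 8 µg/ml as a sub-toxic cotreatment; 0% = median of DMSO wells and 100% = median of geldanamycin control wells; wells of about 8 µL received 7.5 nL stock; the first replicate is given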
# Beta apoptosis – beta cell apoptosis inhibition | INS-1E cytokine-induced death, ATP luminescence, 48 h; percent of positive-control rescue, neutral wells zero | protection from apoptosis, % (test concentration not listed) | 0.8% of 300,000 active | AID 435005;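 active = all replicates at 75% or more, or half of them and the mean; inconclusive = half reach 75% but not the mean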;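 also: 0% = cytokine-treated negative control wells and 100% = positive control rescue; higher means more ATP so stronger rescue from cytokine killing; wells of about 40 µL received 100 nL stock; the first replicate is given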
# rRNA inh HTS OD600 – also measured in rRNA inh HTS; calls as there; OD600 change, %; measured here: OD600 growth;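 optical density of the mix in the first replicate; 0 = DMSO median and -100 = no signal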
# rRNA inh HTS RFP – recorded beside rRNA inh HTS, whose call it bears; RFP signal change, %; measured here: RFP humanized mutant strains;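 first replicate; 0 = DMSO median and -100 = no signal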
# The depositor's hits bear a star; ? = inconclusive; . = no result given; & = joins results of further samples. A portion of the library; rates above refer to the full screens.
SMILES,T cruzi inh,rRNA inh HTS,rRNA inh HTS OD600,rRNA inh HTS RFP,ALR H2O2 inh,Beta2AR agonist,Bfl-1 A1 inh,LANA-H2A inh,Calb FLC,Beta apoptosis
Cc1cc(C)c(NC(=O)CN(C)S(=O)(=O)c2ccc3c(c2)n(C)c(=O)c(=O)n3C)c(C)c1,-1,5,11,-1.8,13,-6,-0.8,1.8,-1,0
COc1ccc(C(=O)Oc2ccc(C(C)=O)cc2)c(OC)c1,-10,.,.,.,-4,16,0.2,-2.2,-13,1
c1ccc2sc(NC3=NCN(C4CCCCCC4)CN3)nc2c1,38,.,.,.,-2,-10,-0.5,0.5,4,-1
O=C(CCc1ccccc1)N1CCCN(C(=O)CCc2ccccc2)CC1,-4,.,.,.,-1,4,0.3,0.5,5,2
CSc1ccc(CCNC(=O)c2cc(-c3ccccc3)c(N3CCOCC3)s2)cc1,27,-3,5,3.3,-2,9,-0.7,-3.7,-3,12
COC(=O)c1c(-c2cccs2)csc1NC(=O)c1cccnc1,0,.,.,.,8,-7,0.8,-0.8,95*,8
CC1CN(S(=O)(=O)c2ccc(C(=O)Nc3nnc(-c4ccco4)o3)cc2)CC(C)O1 (configuration not stated),2,.,.,.,87*,4,0.5,-0.8,-36,-3
COc1ccc(OC)c(S(=O)(=O)N2CCC(C(=O)NCCc3ccccc3)CC2)c1,4,6,9,-1.0,0,9,-0.2,-3.4,-14,-2
COc1cccc(/C=c2\s/c(=C/C(=O)c3ccc(C)cc3)[nH]c2=O)c1OC,1,.,.,.,3,8,-1.6,3.1,-18,-2
Cc1ccc(NC(=O)CCCNC(=O)c2ccc(Cl)cc2)cc1S(=O)(=O)N1CCOCC1,.,0,-8,8.5,-4,-1,-1.2,2.5,.,0
COc1cccc(OC)c1C(=O)OCC(=O)NC1CCCCCC1,.,-9,-7,2.3,.,0,0.3,-1.6,.,0
Cc1ccc([C@H]2C(C(=O)O)=CC[C@@H](c3ccc(Cl)cc3)N2S(=O)(=O)c2ccccc2C)cc1,.,.,.,.,.,5,0.1,-2.0,.,4
CC(NC(=O)c1ccccc1)C(=O)N/N=C/c1cccc([N+](=O)[O-])c1 (configuration not stated),8,7,4,-2.1,-7,-1,-0.8,2.7,29,.
O=C(NC(=S)NCC1CCCO1)c1ccccc1F (configuration not stated),-6,4,-1,1.5,-3,-4,0.5,0.1,3,-6
COc1ccccc1OCCNC(=O)C(CCSC)NC(=O)c1ccccc1Cl (configuration not stated),2,9,5,0.9,-11,-5,1.2,-6.7,11,1
COc1cc(C(=O)Nc2ccccc2C(=O)NCc2cccnc2)cc(OC)c1OC,-2,1,0,0.0,.,-2,0.1,0.5,21,-6
Cc1ccc(N2C(=O)CC(N3CCN/C3=C3\CC/C(=C\c4ccccc4)C3=O)C2=O)cc1 (configuration not stated),0,11,5,-5.7,-13,-2,0.2,-0.6,5,-11
N#C/C(=C\c1cccs1)C(=O)NCc1cccnc1,-29,7,11,1.2,-3,-3,0.9,4.4,-7,6
CCc1ccccc1NC(=S)N1CCCCCC1,.,4,3,-2.2,-5,-2,2.0,2.5,117*,0
CN1CCN(Cn2cc(/C=C/C(=O)c3ccccc3)c3ccccc32)CC1,16,.,.,.,26,-29,-2.0,-3.7,19,-3
COc1ccc(Cl)cc1NC(=O)COC(=O)CCNC(C)=O,-2,.,.,.,-6,-2,1.3,0.8,3,-3
CCC1=C2CC[C@H]3C(=O)N(CC)C(=O)[C@H]3[C@H]2[C@@]2(Cc3ccccc3)C(=NCc3ccccc3)OC(=O)N2C1=O,5,-2,-9,-7.3,.,-1,1.3,-2.5,-21,-3
COc1cccc(CC(NC(C)=O)C(=O)NC2CCN(c3nc(C)cc(C)c3C#N)CC2)c1OC (configuration not stated),5,.,.,.,3,1,0.4,0.5,5,-22
Cc1cc(Cl)ccc1NC(=O)CCCN1C(=O)CCC1=O,-6,.,.,.,-3,-2,0.5,-0.1,8,-7
O=C(NC(CC(=O)N1CCN(c2ccccc2O)CC1)c1ccccc1)c1ccccc1Cl (configuration not stated),.,-5,-11,1.5,99*,2,-0.4,-6.1,.,-1
CCOC(=O)C(CC)(CCC(=O)OC)c1csc(Nc2ccccc2O)n1 (configuration not stated),-5,.,.,.,58,.,0.3,2.9,2,-6
Cc1ccc(-n2nc3c(c2NC(=O)C(C)C)CS(=O)(=O)C3)cc1,-9,.,.,.,-10,-2,-0.6,-1.6,-2,-1
COc1ccccc1N1CCN(C(=O)c2cc3cc(Br)ccc3oc2=O)CC1,6,4,-9,-6.3,-2,-11,1.2,1.9,-1,-5
Cc1ccc2nc(-c3ccccc3)cc(C(=O)NNC(=O)c3csc(N4CCOCC4)n3)c2c1,-11,-53,-76,-19,-3,3,0.2,-1.5,0,3
CC(SCc1ccc(C(=O)O)o1)c1ccc(C(=O)O)o1 (configuration not stated),-3,7,12,-0.7,62,-6,0.9,0.9,-2,-6
CNC(=S)N/N=C/c1cc(Br)c(OCc2ccncc2)c(OC)c1,-12,-5,-7,-1.3,.,-5,-1.8,0.2,8,1
NNc1ncnc2sc3c(c12)CCC3,-9,3,-2,2.0,6,-1,-0.3,-2.2,-12,2
Cc1cc(C)nc(/N=C(\N)Nc2ccc(S(=O)(=O)Nc3nccc(C)n3)cc2)n1,2,20,9,4.6,2,-1,0.1,1.8,3,.
O=C(CN1C(=O)c2ccccc2S1(=O)=O)NCCSCc1ccco1,3,.,.,.,21,-8,-0.2,-1.5,13,-6
CCOc1ccc(S(=O)(=O)/N=C(/Nc2ccc(C)c(S(=O)(=O)N3CCOCC3)c2)c2ccccc2)cc1,.,-4,-8,4.9,-7,8,0.5,8.9,.,0
COc1ccc(NS(=O)(=O)c2cc(NC(=O)[C@@H](NC(=O)c3ccccc3)C(C)C)ccc2C)cc1,-8,.,.,.,-4,1,0.9,-2.5,-5,-3
Cc1ccc(NC(=O)Cc2cn3ccsc3n2)nc1,-3,.,.,.,0,0,0.3,3.7,-11,-9
O=C(Cn1ccc([N+](=O)[O-])n1)NCc1cccs1,-5,3,3,-3.2,1,7,0.5,5.3,-5,-7
CCNC(=S)NNC(=O)C(c1ccccc1)c1ccccc1,8,0,3,4.7,11,12,1.0,5.9,0,-5
Cc1cc(S(=O)(=O)N2CCC3(CC2)OCCO3)c(C)cc1Cl,6,.,.,.,-4,-17,1.5,-3.1,0,.
Cc1ccc2c(c1)N(CC(=O)NCCc1c[nH]c3ccccc13)C(=O)CO2,-9,.,.,.,6,13,0.2,-3.9,-6,-3
Cc1[nH]c(C)c(S(=O)(=O)N2CCN(c3cccc(Cl)c3)CC2)c1C(=O)N1CCCCC1,15,8,-11,8.4,1,1,0.1,0.7,0,.
CC1CC(C)CN(C(=O)COc2ccc([N+](=O)[O-])cc2Cl)C1 (configuration not stated),4,1,-6,-2.5,-25,-7,0.2,5.0,-1,-3
COc1cccc(CNC(=O)Cc2ccc(NC(=O)C3=C(C)OCCS3)cc2)c1,1,-7,6,0.4,-6,1,1.0,4.1,-28,3
CC(OC(=O)c1cccc(S(=O)(=O)N2CCCC2)c1)C(=O)c1ccccc1 (configuration not stated),3,-2,3,0.7,-3,5,-0.2,4.7,-13,-2
Cc1ccc(C(=O)C(C(=O)/C=C/c2ccccc2)=C2SCCCS2)cc1,59*,.,.,.,2,17,1.2,-4.1,9,.
Cc1ccc(S(=O)(=O)N2CCCCC2)cc1NC(=O)c1cccs1,.,2,-5,2.3,0,-3,-0.9,1.4,.,3
CCOC(=O)N1CCN(C(=O)c2ccc3nc4cc(Cl)ccc4c(=O)n3c2)CC1,-10,.,.,.,-4,-15,-0.1,0.8,5,-2
CC(C)(C)OC(=O)N1CCC(C(=O)N[C@@H](Cc2c[nH]c3ccccc23)C(=O)O)CC1,8,0,-10,-2.7,9,-6,1.8,1.7,-2,5
CCCOc1ccc(NC(=O)CNC(=O)c2cc(OC)cc(OC)c2)cc1OCCC,7,-1,-13,3.8,.,2,1.2,-3.6,-1,-7
CCC(=O)Nc1nnc(-c2ccc(OC)cc2)o1,-15,-15,-28,-3.0,.,-16,-0.1,-6.1,-3,-8
O=C(NCc1ccccc1OC(F)(F)F)C1CCC(=O)N(C2CC2)C1 (configuration not stated),-7,4,8,-0.3,-10,-5,-1.1,4.2,1,-7
COC(=O)[C@@H]1Cc2c([nH]c3ccccc23)C(C)(C)N1C(=O)CCl,63*,-6&5,-7&6,-5.8&3.0,62,4,1.1,-3.1,2,-6
CC(C)(C)OC(=O)N[C@@H](Cc1ccccc1)C(=O)NCC1CCC(C(=O)N[C@@H](CCC(N)=O)C(=O)O)CC1 (some centres not stated),-21,18,2,6.3,-6,1,-0.3,1.3,4,-7
COCC(C)NC(=O)CCc1nnc(C2(c3ccc(Cl)cc3)CCC2)o1 (configuration not stated),-5,.,.,.,-4,-10,-0.5,-3.1,11,-4
COc1ccc(NC(=O)/C(=C/c2cccnc2)NC(=O)c2cccs2)cc1,12,.,.,.,0,3,-0.4,2.5,-18,-8
CCOC(=O)CSc1nnc(CCCCCN2C(=O)c3cccc4cccc(c34)C2=O)o1,-7,-10,1,-0.6,-3,3,0.0,4.4,1,-5
O=CNc1ccccc1Oc1ccccc1,0,.,.,.,-1,-12,0.0,0.6,-12,-13
OCCN1CCN(c2ncnc3nc[nH]c23)CC1,-3,6,11,1.4,-8,-1,1.2,-1.4,3,-8
CCC(=O)NC(=S)Nc1ccc(S(=O)(=O)NC(C)C)cc1,3,-1,3,-7.4,4,1,0.2,-2.2,?,-7

# Following part
SMILES,T cruzi inh,rRNA inh HTS,rRNA inh HTS OD600,rRNA inh HTS RFP,ALR H2O2 inh,Beta2AR agonist,Bfl-1 A1 inh,LANA-H2A inh,Calb FLC,Beta apoptosis
CN(C(=O)CCN1C(=O)c2ccccc2C1=O)C1CCCCC1,1,.,.,.,1,-15,0.5,1.2,1,-1
COc1ccc(S(=O)(=O)N(Cc2ccccc2)Cc2nc(-c3ccccc3)no2)cc1,.,.,.,.,.,-4,-1.0,7.5,-3,.
COc1ccc(/C=C/C(=O)NC(=S)NCCc2ccc(OC)c(OC)c2)cc1,-79,-6&3,-3&12,-5.9&0.2,.,16,7.2*,-1.0,18,20
Cc1ccc(S(=O)(=O)N(CC(=O)Nc2cccc(N(C)S(C)(=O)=O)c2)c2ccc(Cl)c(Cl)c2)cc1,70*,.,.,.,-1,6,-0.3,4.7,14,.
O=C(CSc1ncnc2sc3c(c12)CCCC3)c1ccco1,.,.,.,.,8,25,0.0,1.8,-1,-1
NS(=O)(=O)c1ccc(CNC(=S)NCc2ccc(F)cc2)cc1,4,10,12,-1.9,1,-3,-0.1,0.9,-6,-3
CN1CCN(c2nc3ccccc3nc2C(C#N)S(=O)(=O)c2ccccc2)CC1 (configuration not stated),8,8,4,0.9,-4,.,0.9,4.8,-1,-6

# Bioassay records (PubChem BioAssay)
